Assay outcomes: PubChem BioAssay, National Center for Advancing Translational Sciences (NCATS)
Sfp inh: blocks B. subtilis Sfp PPTase activity | AID 1490 | 3.5% of 310,000 active | Biochemical Sfp PPTase activity, qHTS | Potency, µM, for the others: max response, negative = inhibition, hits mostly inhibitors | Q9F4F7; active = well fitted inhibition curve with a large enough effect; inconclusive = small, poorly fitted or top-dose-only effect, or another doubt; inactive = no such curve, though single readings can be large or run the other way;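 note: the enzyme is Sfp with the accession as filed and its product quenches rhodamine fluorescence; potency is the fitted concentration of half-maximal effect; 0% = enzyme reaction without inhibitor and -100% = no enzyme wells; top concentration of the series not given in the record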
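With Hepes-Na pH 7.6 buffer containing 10 mM MgCl2, Sfp (15 nM) modified BHQ-2-YbbR (12.5 uM) using rhodamine-CoA (5 uM). Two reads 30 minutes apart at 525/598 nm yielded each well's rate.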
Menin-MLL FL inh: menin-MLL binding inhibition, fluorescein peptide; Fluorescence polarization, fluorescein-MLL peptide displacement from menin; FP activity change, % at 61.4 µM; 290,000 tested, under 10 active; AID 1766; inconclusive = falling polarisation curve, or a change in total fluorescence; inactive = total fluorescence flat and polarisation flat or rising; no compound was filed as active; the % refers to the polarisation; negative = inhibition;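 note: % of control where 0% means no effect; inhibitors lower the polarisation; unlabelled MLL peptide was the positive control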
ClpP mod: qHTS Assay for Activators of ClpP; Potency, µM (top dose mostly 57.5 µM), without a hit: at the top dose activity change, negative = active; 1.9% of 340,000 active; ATP-dependent Clp protease proteolytic subunit (Bacillus subtilis (strain 168)), P80244; purified B. subtilis ClpP, FRET peptide cleavage, 20 min; active = well fitted falling curve with a large enough effect; inconclusive = small, poorly fitted or top-dose-only effect; inactive = no such curve, though single readings can be large or run the other way; note: potency is the fitted concentration of half-maximal effect; the source files actives as falling curves though it sought activators and does not explain the sign; nearly all actives have a fitted effect of over 65% in size; many hits overshoot -100%
Target sequence (P80244 whole entry, looked up): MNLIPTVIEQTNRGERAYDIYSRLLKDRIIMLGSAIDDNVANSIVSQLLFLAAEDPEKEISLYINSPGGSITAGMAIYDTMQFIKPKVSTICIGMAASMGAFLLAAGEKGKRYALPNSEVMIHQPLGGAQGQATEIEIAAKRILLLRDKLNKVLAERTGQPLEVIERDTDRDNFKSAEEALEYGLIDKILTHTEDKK
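ClpP 10 microg/mL final, pH 8 Tris/KCl buffer with BSA, glycerol, Tween-20; compound pinned in; FRET-FV substrate; RT 20 min; Ex320/Em430; ΔFRET vs ADEP 5.8 microM, DMSO, no enzyme.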
TRPV1 potentiator: human TRPV1 potentiation | potentiation, % at 8.33 µM | TRPV1-expressing cells, Fluo-8 calcium influx, capsaicin EC20 potentiation; host cell line not named in the record; control for the full effect not named in the record | 0.02% of 320,000 active; active means potentiation above 80%; inconclusive means 30% to 80%; inactive means below 30%; note: 0% is about no effect
Target sequence (Q8NER1 whole entry, looked up): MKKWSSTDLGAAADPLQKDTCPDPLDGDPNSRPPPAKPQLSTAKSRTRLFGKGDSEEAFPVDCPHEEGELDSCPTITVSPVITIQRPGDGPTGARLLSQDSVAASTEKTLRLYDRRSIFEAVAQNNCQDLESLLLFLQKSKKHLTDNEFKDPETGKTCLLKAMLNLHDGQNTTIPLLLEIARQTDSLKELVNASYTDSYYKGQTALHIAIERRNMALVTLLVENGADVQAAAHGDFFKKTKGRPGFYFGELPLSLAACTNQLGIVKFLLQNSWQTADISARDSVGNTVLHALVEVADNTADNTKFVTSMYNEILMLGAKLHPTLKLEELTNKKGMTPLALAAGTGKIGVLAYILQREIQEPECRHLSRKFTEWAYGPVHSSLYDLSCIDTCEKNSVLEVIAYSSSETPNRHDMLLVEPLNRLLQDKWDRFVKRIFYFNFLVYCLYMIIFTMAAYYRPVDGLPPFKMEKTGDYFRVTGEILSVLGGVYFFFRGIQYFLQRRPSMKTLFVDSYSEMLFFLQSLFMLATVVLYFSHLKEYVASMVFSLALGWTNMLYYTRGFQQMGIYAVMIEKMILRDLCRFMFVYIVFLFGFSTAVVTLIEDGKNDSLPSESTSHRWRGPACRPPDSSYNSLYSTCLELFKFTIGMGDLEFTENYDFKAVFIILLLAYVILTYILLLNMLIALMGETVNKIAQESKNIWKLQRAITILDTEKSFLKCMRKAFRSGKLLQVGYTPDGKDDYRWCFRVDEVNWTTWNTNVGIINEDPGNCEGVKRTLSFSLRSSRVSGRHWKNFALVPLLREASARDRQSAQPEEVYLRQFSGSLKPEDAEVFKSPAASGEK
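TRPV1-expressing cells were cultured overnight at 35.5C and loaded with Fluo-8 calcium dye for 40 to 90 min at room temperature. After a 10 s baseline, compound was added and calcium influx was read kinetically for 3 min (ex 480/em 520 nm).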
gsp ag: agonists of gsp mutant (McCune-Albright syndrome). gsp mutant cells, cAMP HTRF, 30 min; control for the full effect not named in the record. 0.13% of 340,000 active. AID 624287. Potency, µM (titrated, usually from 76.9 µM), for inactives: at the top dose activation (cAMP increase), most hits filed as activators; active = well fitted activation curve with a large enough effect; inconclusive = small, poorly fitted or top-dose-only effect, or another doubt; inactive = no such curve, though single readings can be large or run the other way; cell line not stated here;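 note: phosphodiesterase inhibitor Ro 20-1724 added with compounds to block cAMP breakdown; potency is the fitted concentration of half-maximal effect; nearly all actives have a fitted effect of over 60% in size; about a fifth of the inactives were tested at one dose only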
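Cells stably selected in G418 were plated at 2000/well, grown 16-24 hr, then given compounds in DMSO with the PDE inhibitor […] (300 uM solution added) for 30 min at 37C; cAMP was read by HTRF.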
gsp antag: antagonizes gsp, the McCune-Albright syndrome mutation; 0.4% of 340,000 active; gsp-mutant cells, cAMP HTRF, 30 min; control for the full effect not named in the record; Potency, µM (top dose mostly 76.9 µM), for inactives: at the highest dose activity change, negative = inhibition, hits mostly inhibitors; active = falling curve of any shape with a large fitted effect; inconclusive = falling curve, mostly with a smaller effect; inactive = flat or rising curve; cell line not stated here;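 note: intracellular cAMP measured with PDE inhibitor Ro 20-1724 present during compound exposure; potency is the fitted concentration of half-maximal effect; % is set by controls: 0 for no effect and ±100 for the full control effect; nearly all actives have a fitted effect of over 65% in size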
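G418-selected cells were plated in DMEM/10% FBS for 16-24 h at 37C, then treated with compounds plus the PDE inhibitor […] (300 uM solution added) for 30 min at 37C. Intracellular cAMP was measured by HTRF after 30 min lysis at room temperature.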
CtBP-E1A inh: CtBP/E1A binding inhibition; AlphaScreen GST-E1A/His-CtBP binding, 1536-well; hits give low values; control for the full effect not named in the record; 0.49% of 340,000 active; activity change, % (test concentration not listed); in the data active means activity change below about -65%; inconclusive means about -30% to -65%; inactive means above about -30%; note: % is set by controls: 0 for no effect and ±100 for the full control effect; compound concentration not given in the record
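Steps: dispense buffer (Tris pH 8.0, NaCl 300 mM, TCEP 1 mM, BSA, Tween 20); add 5X protein mix (GST-E1A, His-CtBP, 125 nM each); pin 23 nL compound; 2 h at 37 °C, dark; add 5X beads (50 ug/mL); 1 h; read.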
Starred values were filed as active, the others as inactive; u = inconclusive; x = no result given; & = joins results of further samples; [ ] = remark or other dose.

The first three entries, ahead of the listing:
SMILES	Sfp inh	Menin-MLL FL inh	ClpP mod	TRPV1 potentiator	gsp ag	gsp antag	CtBP-E1A inh
COc1ccc(/C=C2\SC(=S)N(CCCC(=O)N3CCN(C)CC3)C2=O)cc1OC	x	x	x	x	-23%	16%	4
CN1C[C@@H]2[C@@H]3C(=O)N(Cc4ccccc4)C(=O)[C@@H]3[C@](C)(C1=O)N2C(=O)c1ccc(C(C)(C)C)cc1	x	x	-1.5%	x	x	-3%	7
Cc1nc(C)c(-c2ccc(SCC(=O)Nc3cccc(F)c3)nn2)s1	-2%	x	-0.9%	5	3%[15.4 µM]	-9%	-2

Results, repeating the preview:
SMILES	Sfp inh	Menin-MLL FL inh	ClpP mod	TRPV1 potentiator	gsp ag	gsp antag	CtBP-E1A inh
COc1ccc(/C=C2\SC(=S)N(CCCC(=O)N3CCN(C)CC3)C2=O)cc1OC	x	x	x	x	-23%	16%	4
CN1C[C@@H]2[C@@H]3C(=O)N(Cc4ccccc4)C(=O)[C@@H]3[C@](C)(C1=O)N2C(=O)c1ccc(C(C)(C)C)cc1	x	x	-1.5%	x	x	-3%	7
Cc1nc(C)c(-c2ccc(SCC(=O)Nc3cccc(F)c3)nn2)s1	-2%	x	-0.9%	5	3%[15.4 µM]	-9%	-2
CCOc1cc2c(cc1/C=C1/NC(=O)N(CC(=O)OC)C1=O)OCO2	22%	2.8	x	-14	-1%[15.4 µM]	3%	4
CC(=O)N1CCC(=NNC(=O)c2cccs2)CC1	8%	4.9	u	-1	-2%	3%	9
CC1CCN(C(=S)Nc2ccc(SC(F)F)cc2)CC1	11%	2.6	-0.8%	-7	7%[15.4 µM]	3%	-4
C=CCC1NS(=O)(=O)OCC1C(C)C (stereo not drawn)	18%	-12	-4.6%	3	-39%[inhibitor]	1%	-17
O=C(Nc1ccncc1)C1c2ccccc2Oc2ccccc21	16%	4.9	-0.5%	12	12%	2%	0
Cc1ccc(S(=O)(=O)CC(=O)N2CCCCCC2)cc1	21%	-0.8	-1.8%	-4	1%	-1%	10
C/C(=N\NC(=O)c1cc(C)[nH]n1)C(C)(C)C	4%	0.6	-9.2%	2	u	8%	10
COc1ccc(-c2nc(NC3=NCCCCC3)sc2C)cc1	-13%	1.1	x	3	-36%[inhibitor]	-7%	-15
Cc1cc(Oc2ccccc2)nc(SCC(=O)Nc2ccc(Cl)c(Cl)c2)n1	10%	0.3	-1.8%	17	-25%	-20%	10
COc1ccc(C(=O)c2ccc(N3CCN(C(=O)c4ccc(F)cc4)CC3)c(F)c2)cc1Br	3%	2.5	u	-5	u	22%	1
CC1=NNC(=O)C1Cc1ccccc1 (stereo not drawn)	x	x	x	x	26%	2%	5
CC(NC(=O)Nc1ccccc1)c1ccccc1 (stereo not drawn)	12%	0.1	0.7%	-21	13%	6%	5
CS(=O)(=O)NN1C(=O)c2ccccc2NC1c1ccccc1F (stereo not drawn)	16%	3.0	4.0%	8	-61%[inhibitor]	2%	2
COc1ccc(NC(=O)COC(=O)CCCOc2ccc(Cl)cc2Cl)cc1	14%	0.7	2.6%	-10	-11%	-8%	-18
COc1ccccc1CC(=O)Nc1ccc(Cl)cc1C(=O)O	7%	0.1	x	-7	-2%[15.4 µM]	-37%	x
O=C(O)c1cccc(Nc2ccc([N+](=O)[O-])cn2)c1	12%	1.4	1.3%	6	-5%	8%	2
Cc1ccc(NC(=O)Nc2ccon2)cc1	6%	-1.3	1.8%	-14	-1%	3%	-22
CCOc1ccccc1N1CCN(C(=O)c2ccc3nc(N)sc3c2)CC1	x	x	-2.5%	x	-10%[15.4 µM]	-1%	-17
C[C@@H]1CN([C@@H](C)CO)S(=O)(=O)c2ccc(Br)cc2O[C@H]1CN(C)C(=O)Nc1ccc2c(c1)OCO2	x	x	-0.9%	x	-1%	x	4
NS(=O)(=O)c1ccc(CCNC(=O)c2cc(-c3cccs3)nc3ccccc23)cc1	16%	-0.2	x	1	24%	-24%	4
O=C(Nc1ccccc1C(F)(F)F)N1CCCCCC1	-5%	-1.7	0.6%	-3	10%	7%	4
O=c1c2ccccc2nc(-c2ccco2)n1-c1nc2ccccc2s1	23%	3.5	-5.0%	-1	-38%[inhibitor]	-14%	-14

Going on with the list:
SMILES	Sfp inh	Menin-MLL FL inh	ClpP mod	TRPV1 potentiator	gsp ag	gsp antag	CtBP-E1A inh
CCCCNC(=S)N=Nc1c(O)n(Cc2ccccc2)c2ccccc12	u	-4.4	-1.1%	16	-2%	4%	-25
O=P(c1ccccc1)(c1ccccc1)C(O)c1ccncc1 (stereo not drawn)	10%	2.3	0.5%	9	6%	-6%	8
CC(C)(C)c1ccc(/C=N/OCC(=O)NCc2ccc(F)cc2)cc1	1%	4.5	-2.4%	1	-12%[15.4 µM]	-2%	-14
Cc1cccc(NC(=O)c2c(C)nc3ccccn23)c1	6%	5.0	-2.1%	-1	-3%	-3%	3
COc1ccc(NC(=O)CNC(=O)C2CCCCC2)cc1OC	x	x	-2.4%	x	u	10%	-21
C=CCNC(=O)N[C@@H](CCSC)C(=O)OC	22%	1.4	-0.6%	x	0%	0%	13
CC(=O)Nc1ccc(NC(=O)C(C)Sc2nnc(-c3ccc4c(c3)OCO4)o2)cc1 (stereo not drawn)	x	x	x	x	-14%	-3%	6
CC(=O)Nc1cccc(NC(=O)CSc2nc(=O)n(Cc3ccncc3)c3c2CCC3)c1	x	x	0.7%	3	11%[15.4 µM]	5%	0
COc1ccc(N=Nc2cc(OC)c(N)cc2OC)cc1	x	x	x	x	-9%	-7%	u
CCc1noc(C)c1C(=O)N1CCN(S(=O)(=O)c2ccc(C)cc2C)CC1	x	x	-2.6%	3	-37%[inhibitor]	1%	-8
CCC(=O)Nc1cc(C)c(NC(=O)c2ccccc2OC)cn1	-9%	0.7	-1.3%	5	-3%	-3%	5
COc1ccccc1CNS(=O)(=O)c1c(C)nc2scc(C)n2c1=O	21%	-0.7	3.7%&3.7%	-6	u	-1%	6
Cc1ccccc1C(=O)N1CCC(C(=O)Nc2ccc(S(=O)(=O)N(C)C(C)C)cc2)CC1	22%	2.9	0.5%	u	-11%	-7%	-2
COc1ccccc1C(=O)Nc1ccnn1C1CCN(C/C=C/c2ccc(F)cc2)CC1	6%	-0.2	-1.1%	-6	u	-19%	0
Cc1c(C(=O)Nc2ccncc2)sc2nc(-c3ccc(F)cc3)cn12	-15%	1.0	-13%	11	u	3%	-4
COc1cccc(NC(=O)CN(C)C(=O)CC2CCCCC2)c1	x	x	1.1%	-15	-4%[15.4 µM]	20%	2
Cc1cc(C)cc(NC(=O)C(NCCN2CCOCC2)c2ccccc2)c1 (stereo not drawn)	u	0.3	x	-9	-4%[15.4 µM]	12%	11
COC(=O)C(C(=O)NCC1CCCO1)C1CCCC1 (stereo not drawn)	11%	2.3	-4.2%	4	26%	1%	0
O=C(NCc1cccs1)C1CCCCC1	14%	0.7	2.9%	-2	-106%[inhibitor]	5%	0
O=C(Cc1ccccc1)NN1C(=O)/C(=C/c2ccc(C(=O)O)cc2)SC1=S	1%	6.6	-1.5%	-10	8%	-10%	-21
COc1ccc(/C=C2\CCC(C3CCCC3)C2=O)c(OC)c1 (stereo not drawn)	-10%	3.2	-1.1%	0	-37%	-20%	2
CC(=O)NCCNc1ccc([N+](=O)[O-])cn1	-2%	4.3	-0.9%	10	11%	14%	-6
O=C(CC(=O)Nc1cccc(F)c1)Nc1cccc(F)c1	17%	-1.5	-0.6%	10	-4%[15.4 µM]	-18%	24
Cc1c2c(nc3nc4ccccc4n13)CC(C)(C)CC2=O	13%	-0.4	1.5%	6	3%	10%	-5
COc1ccc(C#Cc2c(-c3ccsc3)oc3ccc(N4CCOCC4)cc23)cc1	x	x	3.8%	x	u	15%	13

(listing goes on)
SMILES	Sfp inh	Menin-MLL FL inh	ClpP mod	TRPV1 potentiator	gsp ag	gsp antag	CtBP-E1A inh
COc1ccc(NC(=O)CSc2nnc(-c3ccc(F)cc3)o2)cn1	x	x	-0.7%	14	9%	11%	7
Cc1ccc(C(=O)NC(=S)Nc2c(C)ccc3nsnc23)cc1	35µM*	0.6	u	3	u	-9%	-1
CCCN(Cc1cc2ccc(C)cc2[nH]c1=O)S(=O)(=O)c1ccccc1	-13%	-2.0	-16%	-1	-40%[inhibitor]	-39%	-3
CC(NC(=O)Cn1cc(Br)c([N+](=O)[O-])n1)c1ccccc1 (stereo not drawn)	15%	2.4	0.3%	-4	4%[15.4 µM]	11%	2
c1ccc(-c2cn3nc(-c4ccccc4)c(-c4ccccc4)nc3n2)cc1	12%	u	-2.5%	-7	-52%[inhibitor]	-15%	87
COc1ccc2c(c1)nc(SCC(=O)c1ccc(Br)s1)n2C	56µM*	4.3	1.8%	x	u	12%	4
Cc1cc(C(=O)CN2C(=O)C3CC=CCC3C2=O)c(C)n1-c1ccccc1 (stereo not drawn)	-5%	-2.2	-0.3%	-27	u	-2%	-4
Cc1ccc(S(=O)(=O)N2CC3(O)CN(C(=O)OC(C)C)N(C(=O)OC(C)C)CC3(OC(=O)Nc3cccs3)C2)cc1 (stereo not drawn)	x	x	0.9%	x	2%	x	0
CS(=O)(=O)c1ccccc1-c1nnc(NC(=O)CCS(=O)(=O)c2ccc(Cl)cc2)o1	x	x	-16%	-4	-4%	6%	-3
CC1=C(C(=O)c2ccccc2)C(c2ccc(OC(F)F)cc2)NC(=S)N1 (stereo not drawn)	0%	-0.4	x	11	12%[15.4 µM]	-5%	4
C/C=C1\COC(C(=O)NCCN2CCCC2)(C(F)(F)F)C=C1C=C1CCCCC1 (stereo not drawn)	7%	9.4	-5.8%	x	x	-1%	-6
CC(C)=CCN1CCN(CC#Cc2ccccc2)CC1CCO (stereo not drawn)	-16%	-1.5	1.4%	13	0%	6%	10
Cc1ccccc1C(=O)Nc1ccc(N2CCN(C(=O)c3ccco3)CC2)cc1	-2%	-6.2	x	0	13%[15.4 µM]	-12%	0
CC(Sc1nnc(COc2ccc3ccccc3c2)n1C)C(=O)O (stereo not drawn)	12%	0.3	0.7%	3	-118%[inhibitor]	-6%	2
COc1ccccc1N1CCN(/N=C/c2ccc([N+](=O)[O-])cc2)CC1	3%	-2.0	-0.8%	5	-21%	10%	-7
O=C(O)CC(c1cccc(C(F)(F)F)c1)N1CCS(=O)(=O)CC1 (stereo not drawn)	11%	0.4	x	-6	5%	2%	-1
